# CBX7 inh = CBX7 chromodomain binding inhibitors, primary screen, biochemical, AlphaScreen; Chromobox protein homolog 7 (Homo sapiens), O95931; AlphaScreen His6-CBX7 / biotin-H3K27me3 peptide binding; hits give low values; normalised signal (fraction of DMSO) (no concentration beside the values); 1.1% of 66,000 active; AID 1224903, 2016; in the data active = normalised signal below about 0.5;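 note: 100 nL library stock added to about 20 µL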
# Target sequence (O95931 whole entry, looked up): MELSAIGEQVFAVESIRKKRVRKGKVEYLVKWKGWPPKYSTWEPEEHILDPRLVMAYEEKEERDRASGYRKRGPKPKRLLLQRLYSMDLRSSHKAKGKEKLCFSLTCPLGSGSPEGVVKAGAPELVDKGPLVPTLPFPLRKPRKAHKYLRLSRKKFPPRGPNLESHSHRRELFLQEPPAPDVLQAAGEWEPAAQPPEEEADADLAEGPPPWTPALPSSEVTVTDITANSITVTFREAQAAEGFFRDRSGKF
# CBX7 inh z-score = recorded beside CBX7 inh, whose call it bears; z-score; measured here: z-score of CBX7 signal; some inactives read as strong as hits; reference of the scale not given here;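 same signal on another scale; lower means less binding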
# * = called active by the depositor. Only part of the results is shown; rates above refer to the full screens.
# A first look (15 entries):
SMILES,CBX7 inh,CBX7 inh z-score
CCc1nnc(NC(=O)CSc2nc3ccccc3o2)s1,0.96,-0.52
CCCCOc1ccc(C(=O)Nc2cccc(-c3nc4ccccc4s3)c2)cc1,0.96,-1.1
O=C(CCC1CC(=O)Nc2ccccc21)NCc1ccc(F)cc1 (stereo not given),1.1,2.9
CCC(C(=O)Nc1c2c(nn1-c1ccc(OC)cc1)CSC2)c1ccccc1 (stereo not given),0.92,-2.3
O=C(Cc1c(C(=O)O)[nH]c2ccccc12)NCc1ccccn1,1,0.69
O=C(c1cc(-c2cccc(Cl)c2)on1)N1CCN(Cc2ccccc2)CC1,0.99,-0.36
Clc1ccc(Cn2c(-c3cccs3)nc3ccccc32)cc1,0.51,-9.1
C=CCn1c(=N)n(CCOc2ccccc2C)c2ccccc21,1,0.072
CC(C)(C)c1ccc2c(c1)N(CC(=O)N1CCOCC1)C(=O)CO2,1.1,2.2
CCN(CC)S(=O)(=O)c1ccc2oc(C(=O)N3CCc4ccccc4C3)c(C)c2c1,0.87,-1.3
COc1cccc(-c2cc(C(=O)Nc3c(C)nn(Cc4ccccc4)c3C)no2)c1,0.89,-0.65
COc1ccccc1CNC(=O)c1cc(=O)[nH]c2ccc(S(=O)(=O)N3CCOCC3)cc12,1,0.11
CCC(C)NC(=O)c1cc(Nc2cc(C)cc(C)c2)nc2ccccc12 (stereo not given),1,0.053
CCCN(CCC)S(=O)(=O)c1ccc2c(c1)N(CC(=O)NCCCOC)C(=O)CS2,1,1.4
Cc1nc2cc(C(=O)NCc3ccccn3)ccc2n1-c1cccc(F)c1,1,-0.038

# Results, from the start:
SMILES,CBX7 inh,CBX7 inh z-score
CCc1nnc(NC(=O)CSc2nc3ccccc3o2)s1,0.96,-0.52
CCCCOc1ccc(C(=O)Nc2cccc(-c3nc4ccccc4s3)c2)cc1,0.96,-1.1
O=C(CCC1CC(=O)Nc2ccccc21)NCc1ccc(F)cc1 (stereo not given),1.1,2.9
CCC(C(=O)Nc1c2c(nn1-c1ccc(OC)cc1)CSC2)c1ccccc1 (stereo not given),0.92,-2.3
O=C(Cc1c(C(=O)O)[nH]c2ccccc12)NCc1ccccn1,1,0.69
O=C(c1cc(-c2cccc(Cl)c2)on1)N1CCN(Cc2ccccc2)CC1,0.99,-0.36
Clc1ccc(Cn2c(-c3cccs3)nc3ccccc32)cc1,0.51,-9.1
C=CCn1c(=N)n(CCOc2ccccc2C)c2ccccc21,1,0.072
CC(C)(C)c1ccc2c(c1)N(CC(=O)N1CCOCC1)C(=O)CO2,1.1,2.2
CCN(CC)S(=O)(=O)c1ccc2oc(C(=O)N3CCc4ccccc4C3)c(C)c2c1,0.87,-1.3
COc1cccc(-c2cc(C(=O)Nc3c(C)nn(Cc4ccccc4)c3C)no2)c1,0.89,-0.65
COc1ccccc1CNC(=O)c1cc(=O)[nH]c2ccc(S(=O)(=O)N3CCOCC3)cc12,1,0.11
CCC(C)NC(=O)c1cc(Nc2cc(C)cc(C)c2)nc2ccccc12 (stereo not given),1,0.053
CCCN(CCC)S(=O)(=O)c1ccc2c(c1)N(CC(=O)NCCCOC)C(=O)CS2,1,1.4
Cc1nc2cc(C(=O)NCc3ccccn3)ccc2n1-c1cccc(F)c1,1,-0.038
CCOc1ccc(NC(=O)C2CCN(S(=O)(=O)c3c(C)noc3C)CC2)cc1,1,0.65
Cc1ccc(CNC(=O)Cc2ccc(-n3c(=O)[nH]c4ccsc4c3=O)cc2)cc1,1,-0.062
Cc1ccc(Cn2cc(C(=O)c3ccccc3)c(=O)c3cc(F)ccc32)cc1,0.63,-1.3
Cc1ccnc(NS(=O)(=O)c2ccc(NC(=O)COc3ccccc3)cc2)n1,1.1,2.2
CC(C)c1ccc(NC(=O)CCNS(=O)(=O)c2ccc3c(c2)CCC(=O)N3)cc1,1,0.14
CC(C)OCCCNC(=O)Cn1ncc2c1-c1ccccc1OC2,1,0.47
Cc1ccc(-c2noc(-c3cc(-c4ccccc4)nc4ccccc34)n2)cc1,1,1.9
CCOc1ccc(Nc2ncnc3ccccc23)cc1,0.98,-0.2
O=C(NCC1OCCc2ccccc21)C(=O)Nc1ccccn1 (stereo not given),0.98,-0.69
CCOC(=O)c1ccc2nc(C)cc(Nc3ccc(C(=O)O)cc3)c2c1,1,0.37
# (list continues)
SMILES,CBX7 inh,CBX7 inh z-score
O=c1cc(Cc2nnc(SCc3ccc(F)cc3)n2-c2ccccc2)[nH]c(=O)[nH]1,1.1,1.8
Cc1cc(N2CCN(c3ncccn3)CC2)nc2ccc(NC(=O)c3cccc(F)c3)cc12,1,1.5
Cc1ccc(O)c(CCc2ccccc2)n1,1.1,0.75
CCN(CCNS(=O)(=O)c1cc(Br)cc2c1N(C(C)=O)CC2)c1ccccc1,0.9,-4.3
CCc1ccc(NC2c3ccccc3C(=O)N2c2cccnc2)cc1 (stereo not given),0.91,-1.5
CC1CCCCN1CCCNC(=O)C1CCN(c2nc3ccccc3o2)CC1 (stereo not given),1,0.91
Cc1ccc(CNC(=O)C2CCCN2S(=O)(=O)c2ccc3c(c2)CCC(=O)N3)cc1 (stereo not given),0.99,-0.24
Cc1cc(C)cc(NC(=O)CSc2nnc(CNC(=O)c3c(F)cccc3Cl)o2)c1,0.88,-2
Cc1ccc(-c2ccc(=O)n(CCC(=O)N3CCOCC3)n2)cc1,1,1
CCc1ccc(NC2c3ccccc3C(=O)N2Cc2ccccc2Cl)cc1 (stereo not given),0.94,-0.65
O=C(CN1C(=O)CSc2ccc(S(=O)(=O)N3CCOCC3)cc21)NCC1CCCO1 (stereo not given),1,0.83
O=C(NCc1ccc2c(c1)OCO2)c1ccc2c(c1)N(Cc1c(F)cccc1Cl)C(=O)CS2,0.95,-2.2
Cc1ccc2nc(-c3ccccn3)c(NC3CCCC3)n2c1,0.12*,-19*
Cc1csc2nc(CSc3nc4ccccc4o3)c(Cl)n12,1.2,3.8
CC(C)CCNC(=O)c1ccc2c(c1)N(Cc1ccccc1)C(=O)c1ccccc1S2,0.9,-0.98
COc1ccc(CNC(=O)C2CCN(C(=O)c3cc4sccc4n3C)CC2)cc1,1,0.59
Cc1cc2c(cc1C)C(c1ccccc1Cl)CC(=O)N2 (stereo not given),1.1,0.64
Cc1cccc(OCC(O)Cn2c(Cc3ccccc3)nc3ccccc32)c1 (stereo not given),0.96,-1.4
CCn1c(C(=O)N2CCC(C(=O)NCCCN3CCCC3)CC2)cc2sccc21,1.2,1
CCN1C(=O)c2ccccc2S(=O)(=O)c2ccc(C(=O)N3CCN(c4ccc(F)cc4)CC3)cc21,0.98,-0.59
COc1cccc(-n2nc(C(=O)NCCN(C)C)c3ccccc3c2=O)c1,1.1,1
COCCNC(=O)c1c[nH]c2ccc(S(=O)(=O)N(C)c3ccc(Cl)cc3F)cc2c1=O,0.94,-1
O=C(c1ccc2c(c1)OCO2)c1cn(Cc2cccc(F)c2)c2ccc(F)cc2c1=O,0.78,-0.78
CCOC(=O)c1sc2nc(C)n(CC(=O)Nc3ccc(C)cc3C)c(=O)c2c1C,0.99,-0.71
COc1ccccc1N1CCN(C(=O)c2cn(C3CCCC3)c(=O)c3c2c2ccccc2n3C)CC1,0.93,-0.067
# Next structures follow:
SMILES,CBX7 inh,CBX7 inh z-score
COc1ccccc1Nc1ncc(C(=O)N2CCCC(C)C2)c2ccccc12 (stereo not given),1.3,2.8
O=C(NCCc1ccccc1)c1ccc2c(c1)N(Cc1ccccc1F)C(=O)c1ccccc1S2=O (stereo not given),0.92,-2.2
Cc1onc(-c2ccccc2Cl)c1C(=O)N1CCOCC1,1,0.54
Cc1ccc2c(c1)-c1c(cnn1CC(=O)Nc1ccccn1)CO2,1.1,1.9
Cc1cccc(Cc2c(C)nc3nc(SCC(=O)NC4CCCCC4)nn3c2C)c1,0.98,-0.22
CCOc1ccc(Nc2nc(-c3ccc(Br)cc3)cs2)cc1,0.73,-1.9
Cc1cc(=O)[nH]c(SCc2nc3ncccn3c2Br)n1,1.3,2
COc1cccc(NC(=O)C2CCN(S(=O)(=O)c3c(C)noc3C)CC2)c1,1.1,2.6
CC(C)(C)C(O)Cn1c(=N)n(CCN2CCCCC2)c2ccccc21 (stereo not given),1,1.3
O=C(NCc1cccs1)c1ccc2c(c1)N(Cc1ccccc1Cl)C(=O)CS2,1.1,2.7
CC1(C)CC(=O)C2=C(C1)NC(=O)CC2c1ccc(Cl)cc1 (stereo not given),1.1,1.5
CC(=O)c1c(NC(=O)c2ccccc2)sc2c1CCCC2,1.3,2.8
O=C(COc1ccccc1)NCCc1nc2ccccc2[nH]1,1.1,1.3
CCOc1ccccc1NC(=O)C1CCN(S(=O)(=O)c2c(C)noc2C)CC1,1,1.1
COc1ccccc1-c1cc(=O)n(CC(=O)O)c2c1CCCC2,0.95,-1.1
CC1CCCC(C)N1c1nnc(NC(=O)c2cc(-c3ccc(Br)cc3)on2)s1 (stereo not given),0.78,-0.89
O=C1C2C3C=CC(O3)C2C(=O)N1c1ccc(F)cc1 (stereo not given),0.78,-2.3
COc1ccccc1Cn1c(-c2ccccc2OC)nc2ccccc21,1.1,1
Cc1ccc(-c2cc(C(=O)N(C)Cc3c(C)nn(C)c3C)c3cc(Br)ccc3n2)cc1,1.1,0.66
COc1ccc(CNC(=O)C(=O)Nc2cc(Cl)ccc2OC)cc1,1,0.73
CCc1ccc(OCc2nc(-c3ccncc3)no2)c(Br)c1,0.93,-0.095
Cc1ccc(-c2noc(CN3CCC(Cc4ccccc4)CC3)n2)cc1,1.2,5
O=C(c1cc(-c2ccccc2)nc2ccccc12)N1CCCC1,1,0.21
Cc1nc2c(C(=O)N3CCOCC3)cnn2c(C)c1Cc1ccc(Cl)cc1,0.97,-0.93
Cc1ccc(-n2cc(-c3ccccc3)c3c(NCc4cccs4)ncnc32)cc1,1.1,1.7
# More entries follow:
SMILES,CBX7 inh,CBX7 inh z-score
COc1ccc(-c2nn(C)c3sc(C(=O)Nc4cccc(C(F)(F)F)c4)cc23)cc1OC,1.2,6.5
CCC(C(=O)NCCc1cc2ccc(C)cc2[nH]c1=O)c1ccccc1 (stereo not given),0.88,-1.6
COc1cccc(N2CCN(S(=O)(=O)c3c(C)noc3C)CC2)c1,1,1.1
CC(C)CCN(C)C1CCN(S(=O)(=O)c2cccc(C(F)(F)F)c2)CC1,0.81,-0.19
O=S(=O)(Nc1nccs1)c1ccc(Nc2nnc(-c3ccc(Cl)cc3)c3ccccc23)cc1,0.23*,-1*
OC(CNC1CCCCC1)Cn1c(C(F)(F)F)nc2ccccc21 (stereo not given),0.84,-2.1
CCN1CCN(C(=O)c2cc(Nc3ccccc3)nc3ccccc23)CC1,1.1,1.4
COc1ccccc1-c1c(C)nn2c(N3CCCCCC3)cc(C)nc12,0.84,-2.2
Cc1cc(=O)n2nc(N3CCC(C(=O)Nc4ccc(C)c(Cl)c4)CC3)sc2n1,0.99,-0.3
COc1ccccc1Cc1nc(-c2cccnc2)no1,0.98,-0.38
CCN(CC)S(=O)(=O)c1ccc2c(c1)N(CC(=O)N1CCc3ccccc31)C(=O)CO2,1.1,3.3
COc1ccc(NC(=O)C(NS(=O)(=O)c2ccc3c(c2)CCC(=O)N3)c2ccccc2)cc1OC (stereo not given),0.99,-0.083
CCCOc1ccc(C(=O)Nc2cccc(-c3nc4cc(C)cc(C)c4o3)c2)cc1,1,0.95
CN(C)c1ccc(Nc2nc(-c3cccnc3)nc3ccccc23)cc1,0.67,-9.2
CCC(=O)N1CCc2cc(S(=O)(=O)NC(CC(C)C)C(=O)NCc3ccccc3OC)ccc21 (stereo not given),1.1,2
O=c1[nH]c(SCc2cccc(F)c2)nc2c1CCCC2,1.1,1.1
CCOC(=O)c1c(NC(=O)COc2c(C)cccc2C)sc2c1CCC(C)C2 (stereo not given),1.1,1.3
CN(Cc1ccccc1)C(=O)Cc1c(C(=O)O)[nH]c2ccc(Cl)cc12,0.81,-2
CC(=O)Oc1c(C)cc(C2(C(F)(F)F)NCCNC2=O)cc1C (stereo not given),1.1,0.23
CC(C)OCCCNC(=O)C1CCN(C(=O)c2cc3sccc3n2C)CC1,0.97,-0.56
CCN(CC)c1nc2nonc2nc1Nc1ccccc1F,1.3,1.8
Cc1cc(N2CCCCC2)nc2ccc(NC(=O)CCC(=O)NC3CCCCC3)cc12,1.1,4.1
COc1ccc(NC(=O)c2cn(C)c(=O)c3cc(OC)c(OC)cc23)c(OC)c1,1,1.2
Cc1ccc(C(=O)CC2(O)C(=O)N(C(C)C)c3ccccc32)cc1 (stereo not given),1,0.012
CC1CCCC(NC(=O)c2ccc3c(c2)N(Cc2ccccc2)C(=O)c2ccccc2S3=O)C1C (stereo not given),0.92,-1.9
# Remaining list, next part
SMILES,CBX7 inh,CBX7 inh z-score
O=C(Nc1nnc(-c2ccccc2F)s1)c1ccccc1F,1.1,0.86
O=C(Nc1ccc(CCc2nc3ccccc3o2)cc1)C1CCCCC1,1.1,2.9
Cc1cc(NC(=O)CCc2nc(-c3ccccc3F)no2)no1,0.92,-1.3
Cc1ccc(C(=O)CN2C3=NCCN3c3ccccc32)cc1,0.99,-0.19
CCOc1ccc2nc(SCC(=O)Nc3nccs3)[nH]c2c1,1,0.045
OCc1nc2ccccc2n1Cc1cccc(Br)c1,0.89,-1.7
O=C1CCc2cc(S(=O)(=O)NC(Cc3ccccc3)C(=O)N3CCOCC3)ccc2N1 (stereo not given),1,0.23
Cc1ccc(S(=O)(=O)c2cn(CC(=O)Nc3cccc(Cl)c3)c3ccccc3c2=O)cc1C,0.86,-2
CCOCCCNC(=O)CN1CCN(Cc2ccc(F)cc2Cl)C1=O,1.2,3.3
COc1ccccc1CNC(=O)CCC(=O)Nc1ccc2nc(N3CCC(C)CC3)cc(C)c2c1,1,0.66
CCn1c2ccccc2c2cc(NC(=O)CCC3CCCCC3)ccc21,0.92,-0.23
Cc1ccc(NC(=O)CN2C(=O)COc3ccc(S(=O)(=O)N4CCC(C)CC4)cc32)c(Cl)c1,0.9,-1.1
